# Screening data (PubChem BioAssay)
# miR-21 reporter: qHTS Assay for Modulators of miRNAs and/orActivators of miR-21. AID 2288, 2010. HeLa miR-21 FLuc reporter, luciferase, 48 h. Potency, µM (titrated, usually from 38.3 µM), inactives show top-dose reporter change, positive = more light. 340,000 tested, under 10 active; active = well fitted rising curve with a large enough effect; inconclusive = small, poorly fitted or top-dose-only effect; inactive = no such curve, though single readings can be large or run the other way;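 further: % of control where 0% means no effect; miR-21 action dims this reporter so a rising signal means less miR-21 action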
#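 HeLa cells endogenously expressing miR-21, stably carrying CMV-driven firefly luciferase with a downstream miR-21 binding site, 2000 cells/well. Titrations up to approximately 40 uM, 48 hours; luciferase luminescence read.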
# Rango complex inh: qHTS Assay for Inhibitors of Rango (Ran-regulated importin-beta cargo) - Importin beta complex formation; Importin subunit beta-1 (Homo sapiens), Q14974; Rango CFP/YFP FRET sensor + importin beta, 45 min; Potency, µM (highest dose often 92.2 µM), without a hit: at the top dose inhibition of complex formation; hit rate 0.031% among 340,000; AID 540263, 2011; active = rising FRET ratio curve, often small or poorly fitted; inconclusive = mostly compound fluorescence or quenching in the first reads; inactive = flat curves in all reads;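 further: potency means the concentration at half of the fitted maximal effect; 0% = DMSO wells and 100% = buffer wells lacking importin beta; nearly all actives have a fitted effect of over 15% in size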
# Target sequence (Q14974 whole entry, looked up): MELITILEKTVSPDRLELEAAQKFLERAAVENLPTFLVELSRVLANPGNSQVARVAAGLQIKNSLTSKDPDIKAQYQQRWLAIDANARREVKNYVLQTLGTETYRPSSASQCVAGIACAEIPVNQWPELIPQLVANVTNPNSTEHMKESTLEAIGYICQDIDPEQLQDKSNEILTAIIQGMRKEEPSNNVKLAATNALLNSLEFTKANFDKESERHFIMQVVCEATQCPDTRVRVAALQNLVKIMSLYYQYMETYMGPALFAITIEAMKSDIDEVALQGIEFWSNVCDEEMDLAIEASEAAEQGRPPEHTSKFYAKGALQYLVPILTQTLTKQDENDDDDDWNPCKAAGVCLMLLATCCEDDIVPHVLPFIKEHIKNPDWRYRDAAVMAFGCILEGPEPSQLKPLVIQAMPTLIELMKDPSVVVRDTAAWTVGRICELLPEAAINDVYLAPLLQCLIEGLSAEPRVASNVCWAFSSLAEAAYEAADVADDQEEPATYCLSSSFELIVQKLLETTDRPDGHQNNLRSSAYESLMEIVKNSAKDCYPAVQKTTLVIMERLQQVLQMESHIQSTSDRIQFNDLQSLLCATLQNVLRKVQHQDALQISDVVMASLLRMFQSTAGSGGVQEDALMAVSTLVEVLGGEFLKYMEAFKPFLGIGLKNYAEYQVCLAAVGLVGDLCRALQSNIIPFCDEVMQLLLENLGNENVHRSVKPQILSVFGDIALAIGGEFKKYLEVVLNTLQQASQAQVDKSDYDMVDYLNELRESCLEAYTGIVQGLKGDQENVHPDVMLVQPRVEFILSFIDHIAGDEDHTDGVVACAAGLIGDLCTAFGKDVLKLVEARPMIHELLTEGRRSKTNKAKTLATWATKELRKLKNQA
#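 Inhibition scored from the CFP 486 nm/YFP 530 nm FRET ratio 45 min after adding 0.125 microM importin beta to 50 nM Rango biosensor preincubated 5 min with compound (room temperature, PBS with DTT, Tween-20, BSA). No-importin wells as positive control.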
# GLA inh pH 4.5: qHTS Assay for Inhibitors of Human alpha-Galactosidase at pH 4.5. Alpha-galactosidase A (Homo sapiens), P06280. purified enzyme, 4-MU-alpha-Gal fluorescence, pH 4.5. activity change, negative = inhibition, % at 105 µM. 230,000 tested, under 10 active; inconclusive = small, poorly fitted or top-dose-only inhibition, or a rising curve; inactive = flat fitted curve, though single readings scatter; no compound was filed as active;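 further: 0% = full activity with enzyme and -100% = basal without enzyme; dose as in the result columns while the protocol names 77 µM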
# Rango dissoc inh: qHTS Assay for Inhibitors of RanGTP induced Rango (Ran-regulated importin-beta cargo) - Importin beta complex dissociation; Potency, µM (doses to about 46.1 µM), without a hit: top-dose activity change, negative = inhibition; hit rate 0.071% among 340,000; Biochemical FRET Rango-importin beta, RanGTP-induced dissociation; Snurportin-1 (Homo sapiens) + GTP-binding nuclear protein Ran (Homo sapiens) + Importin …; AID 540253, 2011; active means falling FRET ratio curve, often poorly fitted, with flat reads before Ran was added; inconclusive means other falling curves, or compound fluorescence or quenching; inactive means flat or rising ratio curve;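 further: potency means the concentration at half of the fitted maximal effect; % of control where 0% means no effect; nearly all actives have a fitted effect of over 45% in size; -100% = wells without RanGTP and RCC1; the record marks most hits as doubtful in a second field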
#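 Compounds sat 5 min at room temperature with 0.1 uM Rango biosensor plus 0.25 uM importin beta, then FRET pre-read. RanGTP-RCC1 (0.6 uM Ran, 2mM GTP, 0.2 uM RCC1) added for 45 min, and the CFP/YFP post-read measured blocked complex dissociation.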
# * = called active by the depositor; ? = inconclusive; / = not tested or not shown; & = joins results of further samples.
SMILES,miR-21 reporter,Rango complex inh,GLA inh pH 4.5,Rango dissoc inh
COC(=O)/C(=C/c1c[nH]c2ccccc12)NC(C)=O,-10%,-0.1%,1,1%
Cc1nc(NC(=O)c2ccc3c(c2)OCCO3)ccc1Br,-28%,3.4%,/,0%
O=C(NCc1cccnc1)/C(=C/c1ccco1)NC(=O)c1ccccc1,-6%,2.9%,0,-6%
CC(=O)Nc1ccc(S(=O)(=O)c2ccc(C)cc2)cc1,2%,0.1%,-1,-16%
CN(C(=O)c1ccc2c(c1)CCN2S(C)(=O)=O)c1ccccc1,-1%,5.0%,2,-15%
O=C(NCCc1ccccc1)c1cccc(NC(=O)C2CC2)c1,/,0.3%,/,-12%
S=c1[nH]nc(-c2ccccn2)n1/N=C/c1ccc(Br)s1,-4%,-2.0%,1,16%
O=C(O)c1ccccc1N(Cc1ccccc1)C(=O)COc1ccccc1,4%,4.7%,-1,5%
CCNC(=O)c1ccccc1NC(=O)C1CC(=O)N(C(C)C)C1 (configuration not stated),-4%,2.9%,/,-9%
CC(=O)N1CCc2c(sc(NC(=O)C3COc4ccccc4O3)c2C(N)=O)C1 (configuration not stated),-19%,?,/,?
Cc1ccccc1C(=O)Nc1ccc(-c2nc3ccc(C(=O)c4ccccc4)cc3[nH]2)cc1,4%,0.0%,-2,-11%
CN1C(=O)/C(=C\c2cc(Br)cs2)c2ccccc21,-64%,3.8%,-8,-4%
O=C(O)C1C2CCC(O2)C1C(=O)Nc1cnn(Cc2ccccc2)c1 (configuration not stated),-18%,4.5%,5,-2%
O=C1N/C(=C/c2cccn2-c2ccccc2)C(=O)N1Cc1ccc(F)cc1,-11%,?,10,-28%
Cc1cccc(-n2cc(CN3CCN(c4ccccn4)CC3)c(-c3cccc(F)c3)n2)c1,-8%,-0.9%,-10,4%
Cc1cccc(OCC(=O)NCC(=O)N/N=C/c2ccc(O)cc2O)c1,30%,-3.0%,-5,4%
CC1CC1c1ccc(/C=C(\C#N)C(=O)Nc2cc(Cl)ccc2Cl)o1 (configuration not stated),-9%,?,-4,?
CC1(C)OC(c2ccccc2)=C/C(=C\C=N\NC(=O)c2ccncc2)O1,16%,6.5%,-28,-10%
COc1ccc(C(=O)Nc2cc(=O)n(C)c(=O)n2C)cc1OC,0%,0.7%,-13,29%
N#Cc1c(N)n(CCOC(=O)c2cccc(Br)c2)c2nc3ccccc3nc12,-1%,?,-10,?
CCCN(CCC)CCCNC(=O)c1cn(CC)c2ccc(S(=O)(=O)N3CCOCC3)cc2c1=O,-3%,-0.4%,/,-19%
COc1cccc(C(C(=O)NC(C)(C)C)N(Cc2ccco2)C(=O)CCC(=O)Nc2cc(C)on2)c1OC (configuration not stated),-1%,-1.5%,5,5%
CS(=O)(=O)N(CC(=O)Nc1ccccc1-c1ccccc1)c1ccc(F)cc1,-6%,-3.0%,-6,-4%
O=C1c2ccccc2CN1CCSC(=S)N1CCSCC1,-55%,/,-1,/
CCOC(=O)c1c(S(=O)(=O)NCC(=O)Nc2cc(C)ccc2C)c(C)n(C)c1C,2%&9%,1.9%,/,6%
CC(C)Oc1ccc(CNCC2(O)CCOC(C)(C)C2)cc1 (configuration not stated),-6%,0.6%,-4,0%
CC(=O)Nc1ccc(CNc2ncnc3ccc(-c4c(C)noc4C)cc23)cc1,/,4.2%,/,1%
COC(=O)c1ccc(C2=NOC(C)(c3nnc(Cc4ccccc4)o3)C2)cc1 (configuration not stated),/,2.1%,/,30%
COc1ccc(C(=O)N2CCC(C(=O)Nc3ccc(C)cc3)CC2)cc1,-1%,1.3%,-14,-5%
Cc1cc(NC(=O)c2nn(C)c(C)c2[N+](=O)[O-])no1,-5%,-3.2%,3,-7%
CCOc1ccc(C(=O)O)cn1,-3%,0.3%,6,19%
COc1ccc(NC(=O)c2ccc(C)o2)c([N+](=O)[O-])c1,-42%,-0.1%,4,0%
CCC(=O)Nc1ccc(C(=O)Nc2ccc(OC)cc2[N+](=O)[O-])cc1,-11%,?,-1,3%
Cc1ccc(NC(=O)c2ccccc2-c2ccc(C(F)(F)F)cc2)cc1S(=O)(=O)N1CCOCC1,11%,-4.4%,-9,6%
CC(C)c1ccc(NC(=O)NC2(C(=O)NCc3cccnc3)CCCCC2)cc1,-8%,6.0%,/,-17%
O=C(Cn1nnc(-c2ccccc2NC(=O)c2ccco2)n1)Nc1ccccc1,15%,?,2,-1%

# The final 5 records of the part before come first, to join the parts.
SMILES,miR-21 reporter,Rango complex inh,GLA inh pH 4.5,Rango dissoc inh
COc1ccc(NC(=O)c2ccc(C)o2)c([N+](=O)[O-])c1,-42%,-0.1%,4,0%
CCC(=O)Nc1ccc(C(=O)Nc2ccc(OC)cc2[N+](=O)[O-])cc1,-11%,?,-1,3%
Cc1ccc(NC(=O)c2ccccc2-c2ccc(C(F)(F)F)cc2)cc1S(=O)(=O)N1CCOCC1,11%,-4.4%,-9,6%
CC(C)c1ccc(NC(=O)NC2(C(=O)NCc3cccnc3)CCCCC2)cc1,-8%,6.0%,/,-17%
O=C(Cn1nnc(-c2ccccc2NC(=O)c2ccco2)n1)Nc1ccccc1,15%,?,2,-1%
Cc1nc2ccn(Cc3ccccc3)c(=O)c2cc1C(=O)N1CCN(c2ccccc2)CC1,-7%,0.4%,/,-13%
COc1cccc(NC(=O)CCNC(=O)N2CC(=O)Nc3ccccc32)c1,7%,2.6%,/,4%
O=C(c1[nH]nc2c1CCc1ccccc1-2)N1CCN(Cc2ccc3c(c2)OCO3)CC1,2%,-0.8%,/,0%
O=C(c1ccc2c3n(nc2c1)-c1ccc(Cl)cc1CO3)N1CCCCC1,-60%,1.9%,-3,-9%
O=C(NCc1ccc2c(c1)OCO2)C1CC(=O)N(C2CCCCCCC2)C1 (configuration not stated),-2%,3.7%,4,-2%
COc1ccc(C)cc1NC(=O)COC(=O)c1c(C)noc1C,-4%,10%,8,2%
Cc1cc(C(=O)Cn2nnc3ccccc3c2=O)c(C)n1-c1ccccc1F,24%,1.8%,1,1%
CCOC(=O)c1c(NC(=O)c2c(C)noc2C)sc2c1CCCCC2,2%,?,-1,-5%
CC1CCN(C(=O)COC(=O)C2CCN(S(=O)(=O)c3ccc(Cl)c(C(F)(F)F)c3)CC2)CC1,/,-0.8%,/,-3%
COCCNC(=O)c1cccc(OC2CCN(Cc3ccc(F)cc3OC)CC2)c1,11%,-0.3%,/,16%
O=C(Nc1cccc(NC(=O)c2c(F)cccc2F)n1)c1c(F)cccc1F,-2%,2.7%,/,1%
COc1ccc([N+](=O)[O-])cc1NC(=O)CN(C)S(=O)(=O)c1ccccc1,-5%,-3.6%,-5,1%
NS(=O)(=O)c1ccc(NC(=O)COC(=O)c2cc3ccccc3cc2O)cc1,-20%,2.9%,1,-11%
COc1ccc(-c2csc3ncnc(Cl)c23)cc1,3%,-0.4%,5,5%
CCc1ccccc1NC1c2ccccc2C(=O)N1Cc1ccco1 (configuration not stated),-16%,-3.1%,1,5%
CCOCCn1c(SCc2cccc(C)c2)nc2c1c(=O)[nH]c(=O)n2C,-25%,1.0%,-9,1%
COc1cc(OC)c(C(=O)OC(C)C(=O)NCc2ccc3c(c2)OCO3)cc1OC (configuration not stated),/,-3.3%,/,17%
C=CS(=O)(=O)N(Cc1ccc(Cl)c(Cl)c1)C[C@@H](O)CO,/,0.6%,/,-2%
O=[N+]([O-])c1ccc(NC(=S)NCCc2ccc(Cl)cc2)cc1,?,0.0%,-1,8%
O=C(NNC(=O)c1ccccc1F)c1cccc(-n2cccc2)c1,/,-0.6%,/,3%
C[C@H](CO)N1C[C@H](C)[C@@H](CN(C)S(=O)(=O)c2ccccc2)Oc2c(NC(=O)c3ccncc3)cccc2C1=O,/,0.7%,/,-1%
Cc1ccc(C)c(S(=O)(=O)N2CCN(C(=O)Cc3sc(C)nc3-c3ccc(F)cc3)CC2)c1,/,-1.8%,/,-4%
Cc1c(C(=O)N2CCOCC2)sc(NC(=O)Cc2ccccc2)c1C#N,1%,?,9,-8%
O=C(c1ccc(COc2ccccc2Br)o1)N1CCN(c2ccccn2)CC1,-23%,-0.5%,1,0%
COc1cccc(NC(=O)CCC2CCN(C(=O)Cc3cccc(F)c3)CC2)c1,10%,-2.2%,/,-12%
CCCCN(CC)C(=S)Nc1ccc2nc(N3CCN(C)CC3)cc(C)c2c1,-40%,1.3%,11,-6%
Cc1ccc(S(=O)(=O)N2CC(=O)Nc3ccccc32)cc1C,-4%,-0.2%,-4,6%
CCOC(=O)C1=C(C)NC(=O)NC1c1ccc(C)o1 (configuration not stated),-1%,-6.4%,4,-8%
COCCCNCCCCOc1ccccc1-c1ccccc1,2%,0.2%,-10,-6%
Cc1ccc(OCC(=O)Nc2ccccc2C(N)=O)cc1,-62%,0.1%,/,1%
CC(=O)C1=C(C)OC(N)=C(C#N)C1c1cc2cccc(C)c2nc1Cl (configuration not stated),-8%,-4.0%,-6,0%
Cc1ccc(NC(=O)Cn2c(=O)c(C)nc3ccccc32)cc1,-5%,3.4%,4,-3%
Cn1c(=O)cc(SCC(=O)N2CCN(c3ccccc3)CC2)c2ccccc21,3%&4%,-1.3%,-8,5%
O=C(NCc1ccco1)C1CCN(c2nc3ccccc3n2Cc2ccc(F)cc2)CC1,12%,-5.7%,-4,1%
Cc1nc(N)sc1-c1csc(Nc2ccc(Cl)cn2)n1,-38%,0.2%,-8,-27%
COc1ccc(S(=O)(=O)NNC(=O)c2cc3ccccc3o2)cc1,-7%,0.2%,1,-5%

# Quoted from the listing:
# Value for CCCCN(CC)C(=S)Nc1ccc2nc(N3CCN(C)CC3)cc(C)c2c1 under GLA inh pH 4.5: 11
# Value for COc1ccc(S(=O)(=O)NNC(=O)c2cc3ccccc3o2)cc1 under miR-21 reporter: -7%

# Remaining list, next part:
SMILES,miR-21 reporter,Rango complex inh,GLA inh pH 4.5,Rango dissoc inh
NS(=O)(=O)c1cccc(NC(=O)C2CC(=O)N(Cc3ccco3)C2)c1 (configuration not stated),3%,0.3%,-7,2%
Cc1ccc2oc(Nc3nc(-c4ccccc4)cc(=O)[nH]3)nc2c1,-20%,3.8%,-9,6%
Cc1cc(=O)c2c(o1)CC(C)(C)CC2=O,-2%,1.8%,4,-16%
COc1ccc(/C(C)=N/NC(=O)c2ccc(NS(=O)(=O)c3cccs3)cc2)cc1,-21%,1.9%,2,0%
COc1ccc(OC)c(C2NC(=S)NC(C)=C2C(=O)Nc2ccccn2)c1 (configuration not stated),-1%,0.4%,11,-7%
Cc1ccc(-n2c(=O)c3sccc3n(CC(=O)N3CCCC3)c2=O)cc1,-3%,1.0%,-17,-2%
Cc1cccc(CC(=O)N2CCN(C(=O)c3ccco3)CC2)c1,0%,1.0%,/,2%
COc1ccc(NCc2ccc([N+](=O)[O-])s2)c(OC)c1,-9%,-1.1%,0,-10%
Cc1nn(-c2ccc(Cl)cc2)c(NC(=O)C(C)C)c(-c2ccccc2)c1=O,-4%,-4.8%,-2,6%
CN(Cc1ccc(F)cc1Cl)S(=O)(=O)c1cccs1,-17%,-1.8%,/,12%
COc1ccc2ncn(-c3ccccc3)c2c1,-8%,3.2%,-2,12%
O=C1CCN(Cc2ccccc2)CCN1[C@H](CSc1ccccc1)Cc1ccccc1,5%,-3.1%,/,?
CCc1ccc(/C=N/Nc2ncnc3nc[nH]c23)cc1,-51%,-0.8%,2,9%
O=C1CSC(c2ccccc2F)N1CCN1CCCCC1 (configuration not stated),-6%,6.1%,?,1%
COCc1ccc(C(=O)N(C)C2CCCN(Cc3ccccc3F)C2)o1 (configuration not stated),0%,-0.1%,/,-5%
CCOc1ccc(NC(=S)N2CCC(C(N)=O)CC2)cc1,-11%,-0.8%,0,5%
COc1ccc(CNC(=O)COC(=O)c2ccccc2OCC(=O)Nc2ccc(SC(F)F)cc2)cc1,-3%,4.9%,-5,31%

# An excerpt (hit frequency here may not be typical).
